Rango complex inh – qHTS Assay for Inhibitors of Rango (Ran-regulated importin-beta cargo) - Importin beta complex formation | Importin subunit beta-1 (Homo sapiens), Q14974 | Rango CFP/YFP FRET sensor + importin beta, 45 min | Potency, µM (series often up to 92.2 µM), for the others: top-dose inhibition of complex formation | hit rate 0.031% among 340,000 | AID 540263, 2011; active = rising FRET ratio curve, often small or poorly fitted; inconclusive = mostly compound fluorescence or quenching in the first reads; inactive = flat curves in all reads;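 further: potency means the concentration at half of the fitted maximal effect; 0% = DMSO wells and 100% = buffer wells lacking importin beta; nearly all actives have a fitted effect of over 15% in size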
Target sequence (Q14974 whole entry, looked up): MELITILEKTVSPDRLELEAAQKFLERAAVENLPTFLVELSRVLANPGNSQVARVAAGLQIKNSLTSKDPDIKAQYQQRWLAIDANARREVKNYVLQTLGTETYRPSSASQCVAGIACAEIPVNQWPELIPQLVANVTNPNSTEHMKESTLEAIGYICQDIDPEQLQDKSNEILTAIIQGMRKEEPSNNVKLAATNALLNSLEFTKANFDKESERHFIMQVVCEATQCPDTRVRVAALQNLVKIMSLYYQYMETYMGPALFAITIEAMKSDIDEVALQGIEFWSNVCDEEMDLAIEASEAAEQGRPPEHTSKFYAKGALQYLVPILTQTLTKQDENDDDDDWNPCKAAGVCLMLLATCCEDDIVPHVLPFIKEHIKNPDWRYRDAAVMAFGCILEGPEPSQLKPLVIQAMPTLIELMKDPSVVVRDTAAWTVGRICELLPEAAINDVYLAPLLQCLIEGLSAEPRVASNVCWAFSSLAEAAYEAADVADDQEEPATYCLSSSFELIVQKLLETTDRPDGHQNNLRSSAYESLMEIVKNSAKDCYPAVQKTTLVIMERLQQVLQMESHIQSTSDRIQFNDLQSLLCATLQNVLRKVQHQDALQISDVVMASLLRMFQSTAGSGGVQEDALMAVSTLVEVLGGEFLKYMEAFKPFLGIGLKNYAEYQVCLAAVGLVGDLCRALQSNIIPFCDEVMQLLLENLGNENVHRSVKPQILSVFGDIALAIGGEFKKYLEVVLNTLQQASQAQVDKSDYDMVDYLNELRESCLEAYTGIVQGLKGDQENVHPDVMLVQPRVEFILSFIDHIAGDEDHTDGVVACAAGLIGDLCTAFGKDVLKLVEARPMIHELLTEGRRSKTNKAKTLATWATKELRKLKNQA
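Inhibition scored from the CFP 486 nm/YFP 530 nm FRET ratio 45 min after adding 0.125 microM importin beta to 50 nM Rango biosensor preincubated 5 min with compound (room temperature, PBS with DTT, Tween-20, BSA). No-importin wells as positive control.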
Rango release inh – qHTS Assay for Inhibitors of RanGTP induced Rango (Ran-regulated importin-beta cargo) - Importin beta complex dissociation; Potency, µM (doses to about 46.1 µM), for inactives: top-dose activity change, negative = inhibition; Snurportin-1 (Homo sapiens) + GTP-binding nuclear protein Ran (Homo sapiens) + Importin …; AID 540253, 2011; Biochemical FRET Rango-importin beta, RanGTP-induced dissociation; hit rate 0.071% among 340,000; active means falling FRET ratio curve, often poorly fitted, with flat reads before Ran was added; inconclusive means other falling curves, or compound fluorescence or quenching; inactive means flat or rising ratio curve;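 further: potency means the concentration at half of the fitted maximal effect; % of control where 0% means no effect; nearly all actives have a fitted effect of over 45% in size; -100% = wells without RanGTP and RCC1; the record marks most hits as doubtful in a second field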
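FRET read at 45 min, room temperature: inhibitors block the CFP/YFP signal rise when RanGTP (0.6 uM Ran, 2 mM GTP, 0.2 uM RCC1) frees Rango (0.1 uM) from importin beta (0.25 uM). Pre-read after 5 min compound exposure flags interference.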
GLA inh pH 4.5 – qHTS Assay for Inhibitors of Human alpha-Galactosidase at pH 4.5. 230,000 tested, under 10 active. AID 1467, 2008. purified enzyme, 4-MU-alpha-Gal fluorescence, pH 4.5. Alpha-galactosidase A (Homo sapiens), P06280. activity change, negative = inhibition, % at 105 µM; inconclusive = small, poorly fitted or top-dose-only inhibition, or a rising curve; inactive = flat fitted curve, though single readings scatter; no compound was filed as active;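 further: 0% = full activity with enzyme and -100% = basal without enzyme; dose as in the result columns while the protocol names 77 µM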
miR-21 FLuc – qHTS Assay for Modulators of miRNAs and/orActivators of miR-21. HeLa miR-21 FLuc reporter, luciferase, 48 h. 340,000 tested, under 10 active. Potency, µM (titrated, usually from 38.3 µM), for inactives: at the highest dose reporter change, positive = more light. AID 2288, 2010; active = well fitted rising curve with a large enough effect; inconclusive = small, poorly fitted or top-dose-only effect; inactive = no such curve, though single readings can be large or run the other way;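 further: % of control where 0% means no effect; miR-21 action dims this reporter so a rising signal means less miR-21 action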
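HeLa cells stably expressing CMV-driven firefly luciferase with a downstream miR-21 binding sequence, endogenously expressing miR-21, were treated with titrations (up to about 40uM final) for 48 hours at 37 degree Celsius. Luciferase luminescence was read after lysis.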
An asterisk follows results filed as active; ? = inconclusive; . = not tested or not shown; & = joins results of further samples; [ ] = dose if it differs, or a comment.

structure | Rango complex inh | Rango release inh | GLA inh pH 4.5 | miR-21 FLuc
O=C1CCCc2ccccc2N1Cc1ccc(F)cc1 | 7.2% | -2% | 3 | -1%
COc1ccc(C2(c3ccc(OC)cc3)NC(=O)N(CC(=O)Nc3ccc(C(N)=O)cc3)C2=O)cc1 | -4.4% | -9% | . | 11%
CC(C)[C@@H](NC(=O)OC(C)(C)C)C(=O)NCC1CCC(C(=O)N[C@@H](Cc2ccccc2)C(=O)O)CC1 (stereo partly specified) | -0.1% | -2% | . | -1%
COc1cc(C)c(C)cc1S(=O)(=O)N1CCN(Cc2ccc3c(c2)OCO3)CC1 | -1.8% | -4% | -15 | -14%
Cc1cc(C)c2sc(N(CCN(C)C)C(=O)c3cc(Cl)sc3Cl)nc2c1 | 4.7% | -8% | 12 | 0%
CC(C)c1ccc(Nc2nc(NCc3ccco3)nc(N3CCOCC3)n2)cc1 | -0.2% | 26% | -2 | 0%
c1ccc(Cn2nnc3c(N4CCCCCC4)ncnc32)cc1 | -0.6% | 21% | -1 | 6%
CCCCNC(=O)c1ccc(NC(C)=O)c(Cl)c1 | 0.1% | -5% | -1 | 4%
CC1(OC(=O)CCc2ccccc2)C(=O)C=C2C=C(c3ccc(C#N)cc3)N(CCN3CCOCC3)C=C2C1=O (stereo unspecified) | ? | ? | -4&-5 | 7%
CCOC(=O)C(C)n1cnc2scc(-c3ccc(C)c(C)c3)c2c1=O (stereo unspecified) | 0.5% | 11% | . | 1%
COc1ccc2nc(NC(=O)CN3CCN(C)CC3)sc2c1 | -3.2% | 5% | -8 | -22%
Cc1cc(NC(=O)c2cnn3cccnc23)no1 | 0.5% | 2% | 1 | -52%
COC(=O)c1ccc(-c2cc(C(=O)O)c3cc4c(cc3n2)OCCO4)cc1 | 1.6% | -10% | 27 | -14%
O=C(/C=C/c1ccc2c(c1)OCO2)NCCSCc1c(Cl)cccc1Cl | -1.4% | -8% | 5 | 17%
Cc1cc2c(cc1C)N[C@]1(C[C@H]3CCCC(=O)N4CC[C@@H](C1)[C@@H]34)C(=NC(C)(C)CC(C)(C)C)N2 | -4.0% | 6% | . | .
O=C(CSc1nnc(-c2cccs2)n1-c1ccccc1)N1CCOCC1 | -3.1% | 18% | -3 | -4%
CS(=O)(=O)N(CCc1ccccc1)CC(=O)NCc1ccc2c(c1)OCO2 | 8.3% | -12% | -1 | -7%
Cc1noc(C)c1NC(=O)N(C)C[C@H]1Oc2c(NC(=O)NC(C)C)cccc2C(=O)N([C@H](C)CO)C[C@@H]1C | -1.4% | 23% | . | .
O=C(Nc1cc(Oc2ccc(Cl)cc2)cc([N+](=O)[O-])c1)c1ccco1 | -3.2% | 12% | -8 | 9%
Nn1c(SCC(=O)Nc2ccc(N3CCOCC3)cc2)nnc1-c1cccc(F)c1 | -1.4% | -2% | . | .
O=C1/C(=C/c2coc3ccc(O)cc3c2=O)SC(=S)N1c1ccccc1 | -3.0% | 13% | -5 | 0%
CCC1CCCCN1C(=O)CSc1nc2c(c(=O)n(C)c(=O)n2C)n1C (stereo unspecified) | -0.9% | -4% | 3 | 2%
COc1ccc(OCC(=O)N2CCCC(CO)(CCOc3ccccc3)C2)cc1 (stereo unspecified) | 2.8% | -14% | . | 14%
CCOC(=O)c1cc2c(C(F)(F)F)cc(-c3ccccc3)nc2o1 | -1.2% | 2% | -2 | -3%
C=CCNC(=S)Nc1ccc(F)cc1F | 5.4% | 4% | 0 | -5%
COc1ccccc1N1CCN(C(=O)C(=O)N/N=C/c2ccccc2F)CC1 | -0.8% | 20% | 2 | -16%
O=C(COc1cccc(Cl)c1)NCc1ccccc1 | -1.3% | 1% | . | -11%
OC1(c2cccc(F)c2)CCN(Cc2ccncc2)CC1 | -1.5% | -11% | -4 | -1%
CC(C)Cn1c(-c2ccc(C#N)cc2)nc2c1c(=O)[nH]c(=O)n2CC(C)C | 0.3% | -15% | -6 | -2%
CCS(=O)(=O)N1CCN(C(=O)c2cccc3ccccc23)CC1 | 1.1% | -13% | . | 0%
O=C(Nc1ccc(N2CCOCC2)cc1)C1=NN(c2ccccc2)C(=O)CC1 | ? | 17% | . | .
COc1ccc(NC(=O)c2cc(F)cc(F)c2)cc1Cl | -0.1% | -20% | -1 | -61%
C=CCN(CC=C)S(=O)(=O)c1ccc(C(=O)Nc2nc3c(s2)CCc2ccccc2-3)cc1 | ? | -8% | 3 | -2%
Cc1sc2ncn(-n3c(C)ccc3C)c(=O)c2c1C | 0.3% | -3% | 3 | -6%
CCN(Cc1ccncc1)C(=O)CCc1ccccc1 | -0.9% | -23% | . | 0%
COc1cc(NC(=O)COC(=O)CO/N=C(\C)c2ccc3c(c2)OCO3)cc(OC)c1OC | 0.5% | 0% | . | .
Cc1cccc(OC2CCN(Cc3nc(CC4CC4)no3)CC2)c1 | -4.1% | -14% | -4 | -1%
COc1cccc(CN2CCNC(=O)C2CC(=O)N(C)Cc2cnccn2)c1OC (stereo unspecified) | -0.2% | 20% | -1 | -2%
CN(C)c1cc(-c2ccccc2)nc(-c2ccccc2)n1 | 2.4% | -3% | . | -4%
COC(=O)CN(c1ccc2c(c1)OCO2)S(C)(=O)=O | 0.2% | 3% | 7 | -2%
CCCCNC(=O)c1cn(-c2ccc(OCC)cc2)c(=O)c2cc(OC)c(OC)cc12 | 1.1% | -8% | -2 | 2%
O=C1NC(=O)C2(CCc3ccccc32)N1 (stereo unspecified) | 0.3% | 44% | 13 | 0%
COc1ccc(C2=NO[C@@](CC(=O)O)(C(=O)Nc3ccc4c(c3)OCCO4)C2)cc1 | 0.1% | 16% | . | -12%
O=C(O)c1ccc(Nc2nc(-c3cccnc3)cs2)cc1 | 0.7% | -3% | . | -26%
Cc1ccc(S(=O)(=O)/C(C#N)=C/c2c[nH]c3ccccc23)cc1 | ? | ? | -2 | 2%
CCc1nnc(SCCSc2nnc(CC)n2N)n1N | -3.3% | 1% | 10 | -3%
Cc1nc(C)c(-c2nnc(-c3ccc(C(C)(C)C)cc3)o2)cc1C(=O)NN | 0.2% | -8% | -10 | -3%
Cc1cc(C)cc(OCC(=O)OC(C)C(=O)Nc2c(C)n(C)n(-c3ccccc3)c2=O)c1 (stereo unspecified) | -0.4% | -3% | . | .
Cc1ccc(-n2cc(CN(C)CCc3cn[nH]c3)c(-c3cccc(C)c3)n2)cc1 | 6.0% | 0% | 7 | -12%
CN(C(=S)NC(=O)c1ccc(Cl)cc1)C1CCCCC1 | 1.3% | -4% | . | -30%
Cc1ccc(N(CC(=O)N/N=C/c2cc(C)n(-c3ccccc3C)c2C)S(C)(=O)=O)cc1 | 0.1% | -5% | -27 | -11%
O=C(NCc1ccc(F)cc1)c1cc2c(s1)CS(=O)(=O)C2 | 2.2% | 17% | . | -9%
O=C1Cc2cc(O)ccc2O1 | 1.2% | 8% | . | .
O=C(Nn1c(-c2ccc(Cl)cc2)nc2ccccc2c1=O)c1cccnc1Cl | -1.0% | 15% | 5 | -3%
Cc1ccc(NS(=O)(=O)c2ccc3c(c2)NC(=O)CCS3)c(Cl)c1 | 0.8% | 7% | . | 10%
O=C(O)CN1C(=O)NC2NC(=O)NC21 (stereo unspecified) | -2.4% | 10% | 1 | -3%

Arranged by length of the SMILES (descending): 7 of the compounds above.
structure | Rango complex inh | Rango release inh | GLA inh pH 4.5 | miR-21 FLuc
Cc1ccc(N(CC(=O)N/N=C/c2cc(C)n(-c3ccccc3C)c2C)S(C)(=O)=O)cc1 | 0.1% | -5% | -27 | -11%
Cc1cc(C)cc(OCC(=O)OC(C)C(=O)Nc2c(C)n(C)n(-c3ccccc3)c2=O)c1 (stereo unspecified) | -0.4% | -3% | . | .
Cc1ccc(-n2cc(CN(C)CCc3cn[nH]c3)c(-c3cccc(C)c3)n2)cc1 | 6.0% | 0% | 7 | -12%
O=C(NCc1ccc(F)cc1)c1cc2c(s1)CS(=O)(=O)C2 | 2.2% | 17% | . | -9%
CN(C(=S)NC(=O)c1ccc(Cl)cc1)C1CCCCC1 | 1.3% | -4% | . | -30%
O=C(O)CN1C(=O)NC2NC(=O)NC21 (stereo unspecified) | -2.4% | 10% | 1 | -3%
O=C1Cc2cc(O)ccc2O1 | 1.2% | 8% | . | .

New compounds follow:
structure | Rango complex inh | Rango release inh | GLA inh pH 4.5 | miR-21 FLuc
O=C(NC1=NCCS1)c1ccc([N+](=O)[O-])cc1Cl | -1.2% | -6% | 9 | -10%
Cc1cccc(NC(=S)NCc2ccc3c(c2)OCO3)c1 | 2.1% | 13% | -8 | -12%
CCO[C@H]1OC(C(N)=O)=C[C@@H](C(C)(C)C)[C@@H]1CCCO | 2.6% | -14% | . | .
Cc1cc2nc(SCC(=O)Nc3ccccc3C(=O)O)[nH]c2cc1C | 1.6% | 17% | -1 | -15%
O=C(Nc1ccc2c(c1)OCCO2)c1ccc(Cl)cc1 | -0.6% | 5% | . | -15%
COc1ccc2nc(SCC(=O)Nc3ccc4c(c3)CCC4)[nH]c2c1 | -0.2% | -5% | 2 | -21%
O=C(CCC1CCCC1)NCCCN1CCOCC1 | 2.3% | 5% | 4 | -6%
CN(C)c1ccc(/C=C2\SC(=S)N(Nc3ncc(C(F)(F)F)cc3Cl)C2=O)cc1 | ? | ? | 3 | 0%
CC(C)N(C(=O)CN1C(=O)C(=O)c2ccccc21)c1ccccc1 | 6.9% | -14% | 3 | 1%
CC1CCN(C(=O)c2ccc(-c3ccccc3Cl)o2)CC1 | -2.9% | 8% | . | .
O=C(Cc1csc(Nc2nc(=S)[nH]c3ccccc23)n1)NCCCN1CCN(c2cccc(Cl)c2)CC1 | ? | ? | 2[21.1 µM] | 11%
CN(C(=O)COC(=O)C1CCN(S(=O)(=O)c2cccs2)CC1)C1CCS(=O)(=O)C1 (stereo unspecified) | 0.0% | 0% | -11 | -3%
Cc1noc(C)c1Cc1c(Cl)cccc1Cl | 0.1% | 5% | 4 | 1%
Cc1nc(/N=C(\N)NC(=O)c2ccccc2)nc2ccccc12 | 10% | 23% | 2 | -36%
O=C(N[C@H]1CCC(=O)N([C@H](CSc2ccc(Br)cc2)Cc2ccccc2)CC1)OCc1ccccc1 | -5.3% | 1% | . | .
O=C1C(O)CCN1Cc1ccccc1 (stereo unspecified) | -0.5% | 12% | . | .
Cc1nn(-c2cc(N3CCNCC3)ccc2[N+](=O)[O-])c(=O)c2ccccc12 | -0.3% | 8% | -10 | -6%
COc1ccc(C(=O)c2ccc(Cl)cc2Cl)cc1 | -0.5% | -11% | 4 | -3%
COc1ccc(/C=C2/SC(=O)N(NS(=O)(=O)c3ccccc3)C2=S)cc1OC | 3.0% | 20% | -17 | -22%
CCOC(=O)c1cnc(SC2CC(=O)N(c3ccccc3)C2=O)nc1N (stereo unspecified) | 0.4% | 9% | -6 | -9%
CCOc1cccc(-c2nnc(SCC(=O)Nc3cc(C)ccc3OC)n2N)c1 | 0.2% | -3% | -4 | -1%
Cc1c(Cl)cccc1NC(=S)N(CCCN1CCOCC1)Cc1ccco1 | -1.6% | 5% | -24 | 3%
CCCNc1nc2c(c(=O)n(C)c(=O)n2C)n1CCc1ccccc1 | 0.9% | -6% | -9 | 22%
O=C(CCNS(=O)(=O)c1cccc2nsnc12)NCCC1=CCCCC1 | 3.3% | -21% | -6 | -1%
CC(=NCCc1c(C)[nH]c2ccc(OC(F)(F)F)cc12)C1=C(O)CC(c2ccccc2)CC1=O (stereo unspecified) | -2.1% | -3% | 1 | 0%
CCCc1c(C(=O)N/N=C/c2sccc2C)nnn1-c1nonc1N | -3.0% | -11% | . | -5%
CC(=O)Nc1ccc2nc(C)n(Cc3ccc(Cl)cc3)c(=O)c2c1 | 1.1% | 6% | -3 | -58%
O=C(NCc1ccco1)c1ccc2c(c1)C(=O)N(Cc1ccccc1)C2=O | -2.2% | 10% | 9 | -3%

Screening results deposited in PubChem by National Center for Advancing Translational Sciences (NCATS).

These rows are one share of the data; the hit share may differ from the screen's.
